BJeLR lethal – BJeLR cell viability loss | BJeLR (HRASV12) viability, CellTiter-Glo ATP luminescence, 48 h; reference of the scale not given here | inhibition, % (no concentration beside the values) | hit rate 0.17% among 300,000;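 active means replicate mean above 50%; inconclusive means above 50% but judged a plate artefact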;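 further: 50 nL library stock added to about 25 µL; numbers are from one replicate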
Sa ugtP lethal – kills S. aureus RN4220 lacking UgtP; S. aureus RN4220 ugtP deletion, OD600 growth, 16 h; some inactives read as strong as hits; AID 1259309; hit rate 0.54% among 330,000; growth inhibition, % (test concentration not listed);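 active means z-score under -3 and OD600 up to 0.15 on both plates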;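 further: plate controls were untreated wells for no effect and antibiotic for full effect; wells of about 80 µL received 100 nL stock; the first replicate is given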
Mtb hypoxia inh – reduces hypoxia-regulated biosensor signal in M. tuberculosis; M. tuberculosis hypoxia-regulated fluorescent reporter, fluorescence; fluorescence inhibition, % (concentration not given with the values); hit rate 0.1% among 300,000; AID 1159583;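 active means 35 to 45% if threefold the growth effect, above 45% if 1.5-fold the growth effect; inactive means the rest, general growth blockers included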;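 further: wells of about 50 µL received 100 nL stock; 0% = vehicle wells and 100% = reference inhibitor wells; whole bacteria with a GFP reporter of the hypoxia response; strong numbers were not always called active; many hits fall short of the cut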
PrP UTR inh – inhibition of PrP 5' UTR reporter expression; cell-based PrP 5' UTR mRNA reporter, plate reader; inhibition, % (no concentration beside the values); hit rate 0.35% among 340,000; AID 488862;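 active means every replicate at 50% or more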;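 further: 0 = median of the neutral control wells; tested in H4 reporter cells; numbers are from one replicate; inactives centre near -14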
Autofluor counter – compound fluorescence in toxin protease inhibitor counterscreen. hit rate 3.1% among 360,000. compound autofluorescence counterscreen, microsphere flow cytometry; hits give high values. AID 624483. fluorescence intensity (no concentration beside the values);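 active means at least 3 SD above the mean of all compounds, about 16000 in these data; inconclusive means too few beads counted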;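 further: 100 nL of 1 mM stock went into each well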
Sa RN4220 lethal – kills Staphylococcus aureus RN4220. S. aureus RN4220 growth, OD600, 16 h. inhibition, % (no concentration beside the values). hit rate 0.33% among 330,000;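 active means z-score of -3 or lower and OD600 up to 0.18 on both plates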;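 further: plate controls were untreated cells for no effect and reference antibiotic for full effect; stock transfer was 100 nL into about 80 µL; one replicate is shown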
Mtb hypoxia inh growth – also measured in Mtb hypoxia inh; calls as there; growth inhibition, %; measured here: M. tuberculosis growth (absorbance);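 0% = vehicle and 100% = reference antibiotic; read after six days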
* marks the source's active call; other numbers are inactive results; ? = inconclusive; / = no result given.

SMILES	BJeLR lethal	Sa ugtP lethal	Mtb hypoxia inh	Mtb hypoxia inh growth	PrP UTR inh	Autofluor counter	Sa RN4220 lethal
CCn1ccnc1CN(C)Cc1c(C(=O)N2C[C@@H](C)O[C@@H](C)C2)nc2ccc(Cl)cn12	2	1	5	9	-1	5680	2.0
COc1ccccc1NC(=S)c1ccccc1	-1	2	3	-1	-38	2087	0.6
O=C(NC1CCCC1)C1CCN(C(=O)NCc2ccccc2)CC1	14	14	-1	-9	-25	3349	5.1
COc1ccc(C=NN2CCN(c3ccccc3OC)CC2)cc1Br	/	11	3	1	/	/	1.8
Cc1occc1C(=O)O/N=C(\N)c1ccccc1	16	4	7	12	/	3483	3.9
O=C(CN1CCN(S(=O)(=O)c2ccccc2)CC1)Nc1ccc(N2CCOCC2)cc1	-4	4	3	4	-17	7226	4.0
O=C(c1cc2ccccc2o1)n1nnc2ccccc21	-3	0	/	/	-7	4633	4.0
Cc1cc2oc(=O)cc(Cn3ccnc3)c2cc1Cl	3	19	1	-4	-6	3711	-1.9
CC(C)C[C@]1(c2ccccc2)ON(c2ccccc2C(F)(F)F)C1=O	/	5	10	4	9	2837	2.1
COCCNCc1ccc(Cl)cc1Cl	0	-1	1	8	-16	2288	3.2
CN(C(=O)c1cc(Cl)c2c(c1)OCCO2)c1c(N)n(Cc2ccccc2)c(=O)[nH]c1=O	/	2	3	6	-11	5839	-1.7
Cc1ccc(Cn2cc(C=CC(=O)O)c(-c3ccccc3)n2)cc1	/	6	-3	7	/	/	7.0
OCCNCCSc1nc(C2CCCCC2)n(-c2ccccc2Cl)n1	-2	9	20	4	-21	5852	2.4
Cc1ccccc1-c1nc(CS(=O)(=O)CC(=O)NCCN2CCOCC2)c(C)o1	5	-5	13	8	-9	5557	-8.9
Cc1ccc(C(=O)OCC(=O)Nc2ccc(Cl)cn2)cc1S(=O)(=O)N1CCOCC1	/	1	-5	-10	-3	?	6.7
CSCC[C@H](NC(=O)[C@@H]1CSC2c3ccccc3C(=O)N21)C(=O)NC1CCCC1 (stereo not given in full)	2	5	8	7	-23	4981	1.4
COc1ccc(C(=NO)c2nccc3cc(OC)c(OC)cc23)cc1OC	/	3	9	3	/	/	3.0
COC(=O)c1cccc(NC(=O)c2ccc3c(c2)C(=O)N(C(C)(C)C)C3=O)c1	1	-2	-2	-3	-13	3048	-1.9
CNC(=O)Nc1cccc(-c2cc(-c3c(Cl)cccc3Cl)no2)c1	-7	14	5	-16	4	6000	-8.1
CC(C)OC(=O)CC1C(=O)NCCN1C(=S)NC(=O)c1ccc(F)cc1 (stereo not given)	-2	-1	9	12	-18	2564	-0.9
Cc1cc2c(c(=O)o1)C1(C(=O)N(C)c3ccccc31)C(C#N)=C(N)O2 (stereo not given)	2	-1	1	4	-17	3647	5.6
COc1ccc(S(=O)(=O)N(C)CC2Oc3ccc(NC(=O)Nc4ccc5c(c4)OCO5)cc3C(=O)N(C(C)CO)CC2C)cc1 (stereo not given)	/	4	10	19	/	/	2.9
COCCNC(=O)CSc1nnc(-c2ccc(C)cc2)c(-c2ccc(C)cc2)n1	4	1	-6	8	-2	4366	11
COc1cccc(C=Nn2c(C)nc3ccccc3c2=O)c1O	/	2	-2	3	/	/	1.8
O=c1nc(-c2ccccc2)n(-c2ccccc2)[nH]1	-3	7	1	1	-20	2518	1.7

Structures listed so far that have a furan ring, fused or not (two):
SMILES	BJeLR lethal	Sa ugtP lethal	Mtb hypoxia inh	Mtb hypoxia inh growth	PrP UTR inh	Autofluor counter	Sa RN4220 lethal
Cc1occc1C(=O)O/N=C(\N)c1ccccc1	16	4	7	12	/	3483	3.9
O=C(c1cc2ccccc2o1)n1nnc2ccccc21	-3	0	/	/	-7	4633	4.0

Carrying on:
SMILES	BJeLR lethal	Sa ugtP lethal	Mtb hypoxia inh	Mtb hypoxia inh growth	PrP UTR inh	Autofluor counter	Sa RN4220 lethal
COc1ccccc1/C=C/C(=O)NC(=S)N1CCOCC1	-1	/	/	/	-34	5943	/
COCCNC(=O)Cn1cc(C=NNC(=O)c2ccc(Oc3ccc(O)cc3)cc2)c2ccccc21	/	6	9	0	/	/	4.7
CCN(CC(=O)Nc1ccc(NC(C)=O)cc1)C(=O)C1COc2ccccc2O1 (stereo not given)	-3	5	3	-2	-6	4101	0.6
CSc1cccc(NC(=S)N(CCN(C)C)C(C)c2ccccn2)c1 (stereo not given)	-2	10	4	5	-13	3348	2.7
COc1ccc2c(c1)NP(=S)(Oc1ccccc1)N2 (stereo not given)	0	0	4	0	-9	2905	3.2
CCn1c(C)cc(C)c(C#N)c1=O	-5	2	9	2	3	3606	1.7
Cc1ccc(SCc2[nH]nc3c2C(c2cccnc2)C(C#N)=C(N)O3)cc1 (stereo not given)	-4	-9	2	7	-29	9542	2.3
O=C(NN1C(=O)C2C3C=CC(C3)C2C1=O)c1ccccc1 (stereo not given)	-2	-9	6	4	-16	2617	1.9
CCN1C(=O)[C@H]2[C@@H](c3ccc(OC)cc3)N3C(=O)CN(CCOC)C(=O)[C@@]3(Cc3ccccc3)[C@H]2C1=O	-1	/	/	/	-24	3376	/
CCc1ccc(NC(=O)CC2C(=O)N(c3cccc(C)c3)C(=O)N2C2CC2)cc1 (stereo not given)	3	0	6	9	-19	5389	-8.5
CCn1c(-c2cccn(Cc3ccccc3)c2=O)n[nH]c1=S	11	7	0	5	0	3677	2.2
O=C1CN(S(=O)(=O)c2cc(C(F)(F)F)ccc2Cl)CCN1	/	0	-6	-10	5	3016	-2.5
O=[N+]([O-])c1cc(Br)cc(C=Nc2ccc3c(c2)OCO3)c1O	0	18	4	-3	-36	4842	19
O=C(OCC(=O)N1CCN(c2ccccc2)CC1)c1ccc(Cl)nc1	-8	8	1	0	-28	5384	1.5
CON=C(N)c1ccc([N+](=O)[O-])cc1	/	10	11	1	/	/	2.3
COc1cc(OC)cc(-c2nnc(SCC(=O)Nc3cccc(C(=O)O)c3)s2)c1	5	1	1	-1	3	4620	9.0
Cc1ccccc1NC(=O)CN1C(=O)CSc2ccc(S(=O)(=O)N3CCCC3)cc21	7	8	5	1	-1	4688	0.1
Cc1sc2nc(SCc3nnc(-c4cccs4)o3)n(C3CCCC3)c(=O)c2c1C	3	11	5	1	-7	7156	0.5
NS(=O)(=O)c1ccc(CCNC(=O)NC23CC4CC(CC(C4)C2)C3)cc1	-4	1	-8	-8	-26	3973	-1.9
COC(=O)c1sccc1NC(=S)Nc1cc(OC)ccc1OC	4	7	-6	2	1	/	5.2
COc1ccc(CC(=O)Nc2cc(S(=O)(=O)Nc3ccc(OC)cc3)ccc2OC)cc1	/	17	24	7	-13	4183	-4.7
CCn1c2ccc(C)cc2c2n[nH]c(=S)nc21	-12	-1	19	10	4	/	5.8
O=C1CSc2ccc(C(=O)NCc3ccccn3)cc2N1	/	0	-4	3	5	2621	2.0
Cc1cccc(N2C(=O)C(=CN3CCN(C(=O)c4ccco4)CC3)C(=O)NC2=S)c1	/	1	8	9	/	/	9.2
CCOc1ccc(N2C(=O)CS/C2=C(\C(Cl)=C(Cl)Cl)[N+](=O)[O-])cc1	-7	12	-1	5	-8	5876	6.0
Next section:
SMILES	BJeLR lethal	Sa ugtP lethal	Mtb hypoxia inh	Mtb hypoxia inh growth	PrP UTR inh	Autofluor counter	Sa RN4220 lethal
CCC(C)Cn1cnc2c(SCc3ccccc3F)nc(N)nc21 (stereo not given)	/	-9	8	13	-33	3657	-2.3
COc1cccc(/C=C/C(=O)OCC(=O)NC(=O)NC2CCCCC2)c1	-3	/	/	/	-16	?	/
O=C(N=C1SC2CS(=O)(=O)CC2N1CCc1ccccc1)C1CC1 (stereo not given)	1	12	10	-2	-10	4819	4.4
O=C(CCc1ccc(O)cc1)NNC(=S)NCCc1ccccc1	3	14	8	4	-12	6622	4.4
CNc1ccc(C(=O)N2CCN(S(=O)(=O)c3ccc4c(c3)OCCCO4)CC2)cc1[N+](=O)[O-]	4	5	-2	10	-3	6186	2.3
Cc1cc(C)nc(-n2nc(C)cc2NC(=O)C(C)C)n1	-1	8	4	3	-30	4018	4.5
O=C(COC(=O)c1ccccc1O)NNC(=O)c1ccc(Br)cc1	/	8	6	-5	-10	4157	1.4
O=C(COC(=O)CCNS(=O)(=O)c1ccccc1)NC1CC1	/	3	24	33	-6	3126	2.9
COc1ccc(NC(=O)C2CCN(C(=O)c3ccco3)CC2)c(OC)c1	3	3	12	-1	0	2925	4.7
Cc1nc2ccc(NC(=O)N(C)c3ccccc3)cc2s1	1	10	1	0	-17	1941	4.1
COc1ccc(/C=N/NC(=O)c2ccn[nH]2)cc1COc1ccc(F)cc1	0	/	/	/	5	2290	/
COc1ccc(F)cc1COc1nc(C)nc2ccccc12	-11	2	-2	4	-18	3747	-1.6
CN(C)S(=O)(=O)N1CCN(c2ccc([N+](=O)[O-])c(NC3CC3)c2)CC1	1	-9	8	2	-2	4317	3.5
CCn1c(CNc2nc(-c3ccccc3)cs2)nnc1SCC(=O)NCc1ccccc1	3	-13	-8	-2	-7	3993	-6.3
CC1=C(C(=O)OCc2ccccc2)C(c2ccc(Cl)cc2)NC(=O)N1CCCC(=O)O (stereo not given)	-3	1	17	3	/	/	-2.8
CN(C)c1ccc(/C=N/NC(=O)c2ccc3nc[nH]c3c2)cc1	-8	/	/	/	-20	3499	/
Cc1nc(CNC(=O)c2cc(COc3ccc(F)cc3Cl)on2)cs1	-2	2	-5	12	-22	2700	5.7
COc1ccc(S(=O)(=O)NCC2CCCN(Cc3ccc(OC)cc3F)C2)cc1 (stereo not given)	9	8	-5	-5	3	4813	3.1
CCC(C)NC(=S)Nc1ccc(C(=O)OC)cc1 (stereo not given)	14	-4	-2	3	-12	2462	4.4
CC(C)Cc1cc(C(=O)O)n[nH]1	1	5	4	2	-8	14983	4.7
CCOc1ccc(C(=S)NC2CCCCC2)cc1OCC	18	38	3	-1	-24	3006	0.2
O=C(Cc1ccc(S(=O)(=O)N2CCOCC2)s1)Nc1ccc2c(c1)CCC2	3	-8	/	/	-21	2824	-0.3
COc1ccc(F)cc1S(=O)(=O)NCC(=O)NCc1cc(=O)n(C)c(=O)n1C	1	4	5	8	-4	6192	2.1
COc1ccc(NC(=O)C2COc3ccccc3O2)cc1S(=O)(=O)N1CCOCC1 (stereo not given)	/	0	5	1	-15	3714	0.6
C=CCOC(=O)C(=Cc1cccc2ccccc12)NC(=O)c1ccccc1	/	2	4	9	/	/	9.7
(cont.)
SMILES	BJeLR lethal	Sa ugtP lethal	Mtb hypoxia inh	Mtb hypoxia inh growth	PrP UTR inh	Autofluor counter	Sa RN4220 lethal
Cc1ccc(-n2nc(C)c(NC(=O)CCl)c2C)cc1C	-2	-3	/	/	-61	2073	5.2
CCOC(=O)CC1CCCCN1C(=O)c1cc(COc2cccc3cnccc23)on1 (stereo not given)	16	4	3	5	-7	5674	1.1
O=C(Nc1ccccc1)N1CCN(c2ccccc2)CC1	/	5	14	12	-20	3038	3.3
COc1ccccc1CC(=O)NNC(=O)c1cccs1	-3	4	17	8	15	4122	9.9
CC(C)OC(=O)CSc1nnc(-c2ccc(O)cc2)n1Cc1ccccc1	-2	-3	10	5	-41	10185	2.8
CCC(C)NC(=O)c1ccccc1NC(=O)COc1ccc(OC)cc1 (stereo not given)	9	/	/	/	-14	3993	/
CCCN(CCC)C(=O)Cn1c(=O)n(CCCCCC(=O)Nc2ccccc2)c(=O)c2sccc21	-11	3	-2	0	-14	2167	4.6
Cc1ccc(C(=O)N2CCC3(CC2)Oc2ccc(F)cc2C(=O)C32CC(c3cccnc3)=NO2)s1 (stereo not given)	-9	7	0	4	5	3967	8.3
CC(=O)c1cc(NC(=O)c2ccc(C)cc2)c(=O)oc1/C=C/N(C)C	7	1	/	/	-24	4103	12
C=CCOc1ccc(C2N3CC4(C)CN2CC(CCC)(C3)C4=O)cc1 (stereo not given)	/	-2	/	/	-11	3319	-13
O=C(NCCCn1ccnc1)c1ccccc1F	7	10	9	3	-55	4197	0.7

Only BJeLR lethal and Sa RN4220 lethal, for 3 of the compounds above:
Molecule	BJeLR lethal	Sa RN4220 lethal
Cc1occc1C(=O)O/N=C(\N)c1ccccc1	16	3.9
O=C(CN1CCN(S(=O)(=O)c2ccccc2)CC1)Nc1ccc(N2CCOCC2)cc1	-4	4.0
O=C(c1cc2ccccc2o1)n1nnc2ccccc21	-3	4.0
